RE007 growth inh: qHTS Assay for Inhibitors of the HIV-1 protein Vpr; S. pombe RE007 Vpr strain, BacTiter-Glo ATP luminescence, 24 h; control for the full effect not named in the record; Potency, µM (doses to about 92.2 µM), for inactives: at the top dose activity change, negative = less growth; actives 0.21% (n = 360,000); AID 651644, 2012; active = well fitted falling curve with a large enough effect; inconclusive = small, poorly fitted or top-dose-only effect; inactive = no such curve, though single readings can be large or run the other way;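 also: nearly all actives have a fitted effect of over 50% in size; the assay follows cell death caused by Vpr and the record does not say whether a fall means rescue or toxicity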
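Fission yeast RE007 carrying one integrated HIV-1 vpr copy, seeded at OD 0.01 in PMG+AL medium with 23 nL pinned compound. Grown 24 h at 30 degrees; viability read by BacTiter-Glo luminescence after 5 min.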
StopGo reporter: High Throughput Screening for Foot and Mouth Disease Virus Antivirals | Potency, µM (titrated, usually from 57.9 µM), without a hit: at the highest dose signal change, negative = less light | human cells with a luciferase reporter of 2A StopGo recoding; control for the full effect not named in the record | actives 1.2% (n = 410,000); active = well fitted falling curve with a large enough effect; inconclusive = small, poorly fitted or top-dose-only effect; inactive = no such curve, though single readings can be large or run the other way; tested in HEK293T cells; also: nearly all actives have a fitted effect of over 45% in size; luciferase light after 4 h
Starred values were filed as active, the others as inactive; [ ] = remark or other dose. % is scaled to controls: 0 for no effect and ±100 for the full control effect; potency is read from the fitted curve at half-maximal effect.

How did CC(=O)c1cccc(-c2ccnc3c2CC(C(=O)Nc2ccc(F)c(Cl)c2)O3)c1 (stereo not drawn) do in these assays?
RE007 growth inh: -13%[18.4 µM]; StopGo reporter: -30%

How did CCN(C(=O)COC(=O)CCS(=O)(=O)c1ccccc1)c1c(N)n(Cc2ccccc2)c(=O)[nH]c1=O do in these assays?
RE007 growth inh: 2%; StopGo reporter: 0%

How did O=C1c2ccccc2S(=O)(=O)c2cc(N3CCN(C(=O)c4ccccc4)CC3)ccc21 do in these assays?
RE007 growth inh: 2%; StopGo reporter: 40µM*

How did CC[C@]12C(=O)N(C)C[C@H]([C@@H]3C(=O)N(C)C(=O)[C@@H]31)N2C(=O)c1ccccc1 do in these assays?
RE007 growth inh: 8%; StopGo reporter: 4%

Results for COC(=O)CCCn1cc(CN2CC(N3CCN(Cc4cccc(C)c4)CC3)CS2(=O)=O)nn1 (stereo not drawn) ?
RE007 growth inh: -11%; StopGo reporter: -24%

What do the screens show for `CC(C)S(=O)(=O)N1Cc2ccccc2-n2nncc2C1`?
RE007 growth inh: -10%; StopGo reporter: 0%

What do the screens show for `CCCCn1nnnc1C(c1cc2ccccc2o1)N1CCN(c2c(C)cccc2C)CC1` (stereo not drawn)?
RE007 growth inh: 12%; StopGo reporter: -28%

What do the screens show for `FC(F)(F)c1ccc(-c2ccc3c(c2)CNCc2cnnn2-3)cc1`?
RE007 growth inh: 0%; StopGo reporter: 32%[activator]

What do the screens show for `CC(=O)C1=CN(CC2CCCCC2)CCC1=O`?
RE007 growth inh: 2%; StopGo reporter: -20%

Results for Cc1cn([C@H]2C[C@H](O)[C@@H](CNCc3cnc(N4CCOCC4)nc3)O2)c(=O)[nH]c1=O ?
RE007 growth inh: 8%; StopGo reporter: -3%

The last two entries of the part before are carried over, then new ones follow:
What do the screens show for `CC(=O)C1=CN(CC2CCCCC2)CCC1=O`?
RE007 growth inh: 2%; StopGo reporter: -20%

Results for Cc1cn([C@H]2C[C@H](O)[C@@H](CNCc3cnc(N4CCOCC4)nc3)O2)c(=O)[nH]c1=O ?
RE007 growth inh: 8%; StopGo reporter: -3%

How did COc1cc(C(=O)N2CCN(c3cccc(Cl)c3)CC2)ccc1OCC(=O)N1CCOCC1 do in these assays?
RE007 growth inh: -7%; StopGo reporter: -29%

Results for CN(C1=NS(=O)(=O)c2ccccc21)c1ccc(OC(=O)c2ccccc2F)cc1 ?
RE007 growth inh: -9%; StopGo reporter: -19%

What do the screens show for `CCN(CC)S(=O)(=O)c1ccc(N2CCOCC2)c(NC(=O)CSCc2c(C)noc2C)c1`?
RE007 growth inh: -13%; StopGo reporter: -14%

Results for Nc1nc2ccccc2cc1C(=O)NCc1cccs1 ?
RE007 growth inh: -17%; StopGo reporter: inconclusive

What do the screens show for `O=C(NCc1ccccn1)[C@@H]1CCCN1C(=O)[C@@H]1CCCN1C(=O)c1ccccc1`?
RE007 growth inh: -7%; StopGo reporter: -23%

How did COC(=O)C1=C(c2cc3ccccc3s2)C[C@@H]2CC[C@H]1N2C(=O)NCc1ccco1 do in these assays?
RE007 growth inh: 6%; StopGo reporter: -21%

Results for COc1ccccc1CNC(=O)C[C@@H]1C[C@H]2c3cc(NC(=O)c4ccc5c(c4)OCO5)ccc3O[C@H]2[C@@H](CO)O1 ?
RE007 growth inh: -24%; StopGo reporter: -27%

What do the screens show for `C[C@H](O)[C@@H]1C(=O)N2CCc3ccc(-c4ccccc4)cc3[C@@H]2C[C@@H]1N(C)C(=O)Nc1cc(Cl)cc(Cl)c1`?
RE007 growth inh: 2%; StopGo reporter: -25%

What do the screens show for `CCCC(=O)N1CCCC(c2cc(C(=O)NCc3ccccc3)no2)C1` (stereo not drawn)?
RE007 growth inh: 0%; StopGo reporter: 20%

What do the screens show for `CN(Cc1cccc(-c2ccncc2)c1)C(=O)Oc1ccccc1Cl`?
RE007 growth inh: 9%; StopGo reporter: 20µM*

Reprinted at random: five compounds from above
What do the screens show for `O=C(NCc1ccccn1)[C@@H]1CCCN1C(=O)[C@@H]1CCCN1C(=O)c1ccccc1`?
RE007 growth inh: -7%; StopGo reporter: -23%

Results for CN(C1=NS(=O)(=O)c2ccccc21)c1ccc(OC(=O)c2ccccc2F)cc1 ?
RE007 growth inh: -9%; StopGo reporter: -19%

How did COc1cc(C(=O)N2CCN(c3cccc(Cl)c3)CC2)ccc1OCC(=O)N1CCOCC1 do in these assays?
RE007 growth inh: -7%; StopGo reporter: -29%

Results for Nc1nc2ccccc2cc1C(=O)NCc1cccs1 ?
RE007 growth inh: -17%; StopGo reporter: inconclusive

What do the screens show for `CCN(CC)S(=O)(=O)c1ccc(N2CCOCC2)c(NC(=O)CSCc2c(C)noc2C)c1`?
RE007 growth inh: -13%; StopGo reporter: -14%

New compounds follow.
How did Cc1ccc(NC(=O)C2(C)CCN2Cc2ccccc2OC(F)F)cc1 (stereo not drawn) do in these assays?
RE007 growth inh: -12%; StopGo reporter: -30%

Results for CC(C)(C)OC(=O)N1CCC(C(=O)Nc2ccc(C(=O)NC3CC3)cc2)CC1 ?
RE007 growth inh: 1%; StopGo reporter: -14%

How did N#Cc1cnc(SCC(=O)N2CCCCC2)nc1N do in these assays?
RE007 growth inh: 17%; StopGo reporter: -5%

What do the screens show for `O=C(NCc1ccccc1)C(c1cccc2ccccc12)n1c(=O)c(-c2ccco2)nc2ccccc21` (stereo not drawn)?
RE007 growth inh: -4%; StopGo reporter: -10%

What do the screens show for `CNS(=O)(=O)c1ccc(CNC[C@H]2O[C@@H](n3cc(C)c(=O)[nH]c3=O)C[C@@H]2O)cc1`?
RE007 growth inh: 7%; StopGo reporter: -2%

What do the screens show for `O=C(O)c1ccc(-n2ncc(Cl)c(Cl)c2=O)cc1`?
RE007 growth inh: 14%; StopGo reporter: inconclusive

How did CC(C)CC(N)c1csc(Nc2ccc(S(C)(=O)=O)cc2)n1 (stereo not drawn) do in these assays?
RE007 growth inh: 18%[18.4 µM]; StopGo reporter: -2%

How did COc1ccccc1NC(=O)Nc1nc(C(N)CCc2ccccc2)cs1 (stereo not drawn) do in these assays?
RE007 growth inh: 7%; StopGo reporter: -24%

Results for O=C(NC1CCCCC1)C(c1ccnc2ccccc12)n1c(=O)c(-c2ccccc2)nc2ccccc21 (stereo not drawn) ?
RE007 growth inh: 5%; StopGo reporter: -2%

How did C[C@@H]1CCCCO[C@H](CN(C)C(=O)Cc2ccccc2)[C@@H](C)CN([C@H](C)CO)C(=O)c2cc(NC(=O)Nc3ccccc3)ccc2O1 do in these assays?
RE007 growth inh: 1%; StopGo reporter: 45%[activator]

Results for NC(=O)c1ncn([C@@H]2O[C@H](CN=C3NS(=O)(=O)c4ccccc43)[C@@H](O)[C@H]2O)n1 ?
RE007 growth inh: -12%; StopGo reporter: -16%

How did CCCS(=O)(=O)NC(=O)C1(C)CCN(C(=O)Cc2ccc(OC)c(OC)c2)C1 (stereo not drawn) do in these assays?
RE007 growth inh: 13%; StopGo reporter: -9%

Results for CC(C)NC(=O)C1(C)CN(S(C)(=O)=O)CC(=O)N1CCOc1ccccc1 (stereo not drawn) ?
RE007 growth inh: 0%; StopGo reporter: -6%

How did COc1ccc(C(=O)c2[nH]c(N)c(C(=O)NCCc3c[nH]c4ccccc34)c2-c2ccc(OC)c(OC)c2)cc1 do in these assays?
RE007 growth inh: -13%; StopGo reporter: -27%

What do the screens show for `CCC(CC)c1nnc(NC(=O)CSCc2c(C)noc2C)s1`?
RE007 growth inh: -2%; StopGo reporter: 0%

What do the screens show for `C[C@@H]1CCCCO[C@H](CN(C)Cc2ccc(Cl)c(Cl)c2)[C@@H](C)CN([C@H](C)CO)C(=O)c2cc(N(C)C)ccc2O1`?
RE007 growth inh: -27%; StopGo reporter: -25%

Results for CC(C)(C)OC(=O)NCc1ccc(NC(=O)c2nc[nH]c2C(=O)Nc2cc(Br)ccc2F)cc1 ?
RE007 growth inh: 5%; StopGo reporter: -16%

Results for O=C1C(=Cc2ccccn2)CCc2ccccc21 ?
RE007 growth inh: inconclusive; StopGo reporter: 0%

How did CC(C)c1ccc(C2OC(CCc3ccccc3)Cc3[nH]c(=S)[nH]c(=O)c32)cc1 (stereo not drawn) do in these assays?
RE007 growth inh: 3%; StopGo reporter: -19%

Results for NC(=O)C1=C[C@@H](C2CCCCC2)C[C@@H](OCc2ccc(CO)cc2)O1 ?
RE007 growth inh: -1%; StopGo reporter: 10%

Results for CC(Oc1ccc(Br)cc1)C(=O)N(Cc1ccccc1)c1c(N)n(Cc2ccccc2)c(=O)[nH]c1=O (stereo not drawn) ?
RE007 growth inh: 4%; StopGo reporter: inconclusive

How did COC(=O)[C@]12CCCCC=C1N(Cc1ccc3c(c1)OCO3)C(=O)[C@H](CC(=O)N1CCOCC1)C2 do in these assays?
RE007 growth inh: -11%; StopGo reporter: -5%

How did O=C(OCc1ccccc1)c1c(-c2ccccc2)oc2c1C(OCCO)CCC2 (stereo not drawn) do in these assays?
RE007 growth inh: -16%; StopGo reporter: -12%

What do the screens show for `O=C(NCCc1ccc(Cl)cc1)c1cc(S(=O)(=O)N2CCCC2)ccc1F`?
RE007 growth inh: -12%; StopGo reporter: -29%

Results for Cc1ccc2cc(NC(=O)C3(C)CCN(C)C3)ccc2n1 (stereo not drawn) ?
RE007 growth inh: 1%; StopGo reporter: -10%

How did COc1ccc(-c2nc3ccc(C)cn3c2Cc2cccc(F)c2)cc1OC do in these assays?
RE007 growth inh: inconclusive; StopGo reporter: 12%

What do the screens show for `CC(C)NC(=O)C1(C)CCN1C(=O)c1ccccc1` (stereo not drawn)?
RE007 growth inh: 10%; StopGo reporter: -13%

Results for CS(=O)(=O)c1ccc([C@@H](O)[C@@H](CF)NC(=O)C(Cl)Cl)cc1 ?
RE007 growth inh: 9%; StopGo reporter: -22%

Results for CCOC(=O)[C@]12CCC=C1N(Cc1cccc3ccccc13)C(=O)[C@H](CC(=O)NCC1CCCCC1)C2 ?
RE007 growth inh: 10%; StopGo reporter: 1%

What do the screens show for `CCCCC[C@@H](C)N1C[C@@H](COCc2ccccc2)Oc2cc(N3CC[C@@H](N(C)C)C3)ccc2S1(=O)=O`?
RE007 growth inh: -20%; StopGo reporter: -10%

What do the screens show for `Nc1nc(Cl)cc(=O)n1Cc1ccc(Cl)cc1`?
RE007 growth inh: 25%; StopGo reporter: 1%

What do the screens show for `COc1ccc(C(O)c2ncc(-c3cccc(C(F)(F)F)c3)[nH]2)cc1` (stereo not drawn)?
RE007 growth inh: -3%; StopGo reporter: 10%

How did CC(=O)Nc1cccc(-c2ccnc3c2CC(C)(C(=O)Nc2cccc(NS(C)(=O)=O)c2)O3)c1 (stereo not drawn) do in these assays?
RE007 growth inh: -5%[18.4 µM]; StopGo reporter: 0%

What do the screens show for `COc1ccc(-c2cc3nc(NCc4ccc(N(C)C)cc4)n(C)c(=O)c3s2)cc1OC`?
RE007 growth inh: 1%; StopGo reporter: 28µM*

What do the screens show for `COC(=O)[C@@H](NCc1ccc(B(O)O)cc1)C(C)C`?
RE007 growth inh: 2%; StopGo reporter: -7%

Results for O=C1NC[C@H](CCCCN2CCN(Cc3ccccc3)C(=O)C2=O)N(CCc2ccccc2)C1=O ?
RE007 growth inh: 0%; StopGo reporter: -11%

How did C[C@@H]1CN([C@@H](C)CO)C(=O)CCCn2nncc2CO[C@@H]1CN(C)S(=O)(=O)c1ccc(Oc2ccccc2)nc1 do in these assays?
RE007 growth inh: 45%; StopGo reporter: -14%

How did c1ccc(COc2cccc(-c3cc4nc(NCCc5ccncc5)ccn4n3)c2)cc1 do in these assays?
RE007 growth inh: -12%; StopGo reporter: 0%

How did O=C(Nc1ccccc1)c1cc(C2CCCCN2C(=O)CCCc2ccccc2)on1 (stereo not drawn) do in these assays?
RE007 growth inh: -15%; StopGo reporter: -21%

How did OC[C@@H]1CN(CCN2CCOCC2)C[C@H](n2cnc3c(NC4CCCC4)ncnc32)O1 do in these assays?
RE007 growth inh: -8%; StopGo reporter: -20%

How did O=C(C[C@H]1C[C@@H]2c3cc(NC(=O)C4CCC4)ccc3O[C@@H]2[C@H](CO)O1)NC1CCCCC1 do in these assays?
RE007 growth inh: 25%; StopGo reporter: -28%

Results for CCCN(CC1CC1)c1cc2c(c3c1ccn3C)C1CCC2O1 (stereo not drawn) ?
RE007 growth inh: -18%; StopGo reporter: -12%

Results for Cc1cccc(NC(=O)COC(=O)c2nn(-c3ccccc3C(F)(F)F)cc2O)c1C ?
RE007 growth inh: 0%; StopGo reporter: -1%

How did Cn1ccc2c(N3c4ccccc4CCc4ccccc43)cc3c(c21)C1CCC3O1 (stereo not drawn) do in these assays?
RE007 growth inh: inconclusive; StopGo reporter: -16%

Results for COC(=O)C1=C(c2cc3ccccc3s2)C[C@@H]2CC[C@H]1N2C(=O)NCc1ccccc1 ?
RE007 growth inh: -1%; StopGo reporter: -17%

Results for COc1c(O[C@@H]2O[C@H](CO)[C@@H](O)[C@H](O)[C@H]2O)cc2c(c1OC)-c1ccc(SC)c(=O)cc1C(NC(C)=O)CC2 (stereo partly drawn) ?
RE007 growth inh: 12%[18.4 µM]; StopGo reporter: -24%

Results for COc1cccc(CNC(=O)[C@@H]2CCCN2C(=O)[C@@H]2CCCN2C(=O)c2ccccc2)c1 ?
RE007 growth inh: 8%; StopGo reporter: -11%

How did O=C1CC[C@@H](C(=O)N2CSC[C@@H]2C(=O)Nc2cccc(C(F)(F)F)c2)N1 do in these assays?
RE007 growth inh: -9%; StopGo reporter: -3%

Screening data from PubChem.

Not all compounds are listed. The share of hits here may be higher or lower than overall.
